Screening results: PubChem BioAssay, several laboratories
Beta cell apopt: inhibitors of cytokine-induced beta cell apoptosis, primary screen, luminescence; AID 435005, 2010; actives 0.8% (n = 300,000); protection from apoptosis, % (concentration not given with the values); INS-1E cytokine-induced death, ATP luminescence, 48 h; percent of positive-control rescue, neutral wells zero;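 active means all replicates at 75% or more, or half of them and the mean; inconclusive means half reach 75% but not the mean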;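 further: 0% = cytokine-treated negative control wells and 100% = positive control rescue; higher means more ATP so stronger rescue from cytokine killing; wells of about 40 µL received 100 nL stock; the first replicate is given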
Ecoli rRNA inh: reduced GFP signal of wild-type E. coli, primary screen, bacterial rRNA inhibitor project, GFP/RFP fluorescence, OD600, single point. E. coli WT GFP vs humanized-ribosome RFP mutants, 24 h; hits give low values; DMSO median 0, no signal -100. GFP signal change (wild-type ribosome), % (no concentration beside the values). actives 1.6% (n = 350,000);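 active means significant combined selectivity score with lowered wild-type GFP, culture density cut under 30%, mutant RFP and density less affected; inactive means any of these conditions unmet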; further: one replicate is shown; some compounds called inactive have numbers as strong as hits
T cruzi repl: inhibitors of intracellular T. cruzi growth, primary screen, luminescence, NIH3T3 host cells | inhibition, % (no concentration beside the values) | T. cruzi beta-gal in NIH3T3, 90 h | actives 1.4% (n = 300,000);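 active means mean inhibition across valid replicates above about 55%, limit read from the data; inconclusive means mean below that limit but half or more replicates reach it; inactive means mean below it, under half of replicates reach it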;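 further: signal also drops with host cell toxicity which is not excluded here; 0% = plate median of DMSO wells and 100% = zero luminescence signal; higher percent means less beta-gal luminescence so fewer parasites; stock transfer was 50 nL into about 50 µL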
ALR inh: inhibitors of human ALR sulfhydryl oxidase, primary screen, biochemical, H2O2 detection, HRP-luminol luminescence, single point; FAD-linked sulfhydryl oxidase ALR (Homo sapiens), P55789; purified ALR, DTT oxidation; inhibition, % (test concentration not listed); actives 3.8% (n = 290,000); AID 485317, 2010;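 active means mean and each replicate at 75% or more; inconclusive means only one of the two met; inactive means neither met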;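 further: stock transfer was 7.5 nL into about 7.5 µL; 0% = neutral wells and 100% = wells with inactivated enzyme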
Target sequence (P55789 whole entry, looked up): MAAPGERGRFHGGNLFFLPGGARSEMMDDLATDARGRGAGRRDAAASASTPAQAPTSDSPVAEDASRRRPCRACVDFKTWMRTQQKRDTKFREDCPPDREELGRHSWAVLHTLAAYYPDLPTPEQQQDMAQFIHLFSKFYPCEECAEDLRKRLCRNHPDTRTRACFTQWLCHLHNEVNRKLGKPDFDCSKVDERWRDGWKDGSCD
B2AR ag: beta2AR agonists driving receptor internalization, primary screen, cell-based, FAP fluorogen, flow cytometry; Beta-2 adrenergic receptor (Homo sapiens), P07550; Am2.2-beta2AR cells; reference of the scale not given here; response, % (no concentration beside the values); actives 0.43% (n = 340,000); AID 504454, 2011;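 active means response above a set limit, near 3 SD of response in nonfluorescent compounds, cut at about 42% in these data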;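 further: stock transfer was 100 nL into about 11 µL; a reference agonist was the positive control; negative values mostly stem from fluorescent compounds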
Target sequence (P07550 whole entry, looked up): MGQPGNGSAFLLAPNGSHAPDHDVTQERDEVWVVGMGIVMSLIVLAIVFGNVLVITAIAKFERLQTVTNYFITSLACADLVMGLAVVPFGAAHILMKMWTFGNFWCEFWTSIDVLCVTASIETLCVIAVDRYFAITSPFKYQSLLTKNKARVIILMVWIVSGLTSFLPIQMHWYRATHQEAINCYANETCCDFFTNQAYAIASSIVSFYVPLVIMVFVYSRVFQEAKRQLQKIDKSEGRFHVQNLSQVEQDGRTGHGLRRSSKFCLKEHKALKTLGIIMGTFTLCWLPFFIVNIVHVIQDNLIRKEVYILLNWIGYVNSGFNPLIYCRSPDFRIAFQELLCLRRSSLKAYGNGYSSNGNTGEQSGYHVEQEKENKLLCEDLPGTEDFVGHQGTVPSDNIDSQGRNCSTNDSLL
Calb FLC: C. albicans growth inhibition with fluconazole, primary screen, CaCi-2 strain, Alamar Blue fluorescence; C. albicans CaCi-2 (fluconazole-resistant clinical isolate) + fluconazole, 48 h; growth inhibition, % (concentration not given with the values); actives 0.57% (n = 300,000); AID 1979, 2009;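 active means most replicates above 75%; inconclusive means exactly half above 75%; inactive means most below 75%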;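 further: all wells also contain fluconazole at 8 µg/ml as a sub-toxic cotreatment; 0% = median of DMSO wells and 100% = median of geldanamycin control wells; wells of about 8 µL received 7.5 nL stock; the first replicate is given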
Bfl-1 A1 inh: caspase 3/7 activation in MEF A1-2A-BIM cells, primary screen, A1 inhibitor project, cell-based, luminescence, HTS; Caspase-Glo 3/7 luminescence, 3 h; percent of clofoctol response, vehicle zero; caspase activation, % (no concentration beside the values); actives 0.066% (n = 330,000); AID 2462, 2010;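 active means over half of replicate activation scores above 10%, or exactly half above 10 with the replicate mean above 10; inconclusive means replicate mean below 10 yet half the replicates above 10; inactive means over half of replicates below 10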;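 further: wells of about 30 µL received 50 nL stock; many hits fall short of the cut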
LANA-H2B inh: blockers of LANA interaction with H2A/H2B – biochemical, FP readout, HTS, primary screen. cell-free LANA-H2A/H2B peptide, fluorescence polarization. inhibition, % (concentration not given with the values). actives 0.6% (n = 320,000). Protein LANA1 (Human herpesvirus 8 type P (isolate GK18)), Q9QR71; in the data active means inhibition mostly above about 10%, no sharp cut-off; inactive means mostly below about 6.7%;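 further: stock transfer was 7.5 nL into about 10 µL; 0% = median of vehicle wells and 100% = median of positive control wells; one replicate is shown; the record names a cut of 25% in any replicate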
Ecoli rRNA inh OD600: recorded beside Ecoli rRNA inh, whose call it bears; OD600 change, %; measured here: OD600 growth;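 optical density of the mix in the first replicate; 0 = DMSO median and -100 = no signal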
Ecoli rRNA inh RFP: further read-out of Ecoli rRNA inh, marked with its call; RFP signal change, %; measured here: RFP humanized mutant strains;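 first replicate; 0 = DMSO median and -100 = no signal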
Starred values were filed as active, the others as inactive; ? = inconclusive; . = not tested or not shown. This is a subset, so the mix of outcomes need not match the whole.

SMILES | Beta cell apopt | Ecoli rRNA inh | Ecoli rRNA inh OD600 | Ecoli rRNA inh RFP | T cruzi repl | ALR inh | B2AR ag | Calb FLC | Bfl-1 A1 inh | LANA-H2B inh
COc1ccccc1NS(=O)(=O)c1ccc(NC(=O)c2nc3nc(C)cc(C(F)F)n3n2)cc1 | -16 | . | . | . | 18 | -13 | -18 | 6 | 0.3 | -0.2
O=c1cc(N2CCC3(CC2)OCCO3)[nH]c(=O)n1-c1ccc(Cl)cc1 | -3 | 19 | 13 | -1.1 | -6 | 19 | -2 | -14 | -0.2 | -2.5
COc1ccc(C(=O)NCc2nnc(SCC(=O)NO)n2Cc2ccccc2)cc1 | -6 | 14 | 5 | -6.0 | -20 | -3 | 5 | -7 | -0.4 | -4.1
O=C1/C(=C/c2ccccc2)CSc2sccc21 | 0 | . | . | . | -5 | -5 | 0 | 12 | 0.0 | -4.2
CCc1cc(C(=O)c2ccc(OC)cc2)c(NC(=O)CN2CCCCC2)s1 | 4 | 11 | 0 | 1.3 | 9 | -1 | -4 | 1 | -0.5 | 0.3
CCCn1c2ccccc2c2cnn(CC(=O)NCCCOC)c(=O)c21 | -2 | 5 | -4 | -0.2 | -7 | 13 | -7 | 9 | 0.0 | 2.8
COC(=O)/C=C1\SC(=NC(=O)c2ccc(-c3ccccc3)cc2)NC1=O | -1 | -6 | -1 | 3.8 | . | 1 | 8 | . | -0.4 | 4.4
Oc1ccccc1CN(Cc1ccco1)CC(O)COCc1ccc(Cl)cc1 (stereo unspecified) | -10 | . | . | . | 8 | -14 | -3 | -1 | 0.6 | -1.1
COc1ccc(C(=O)Nc2ccccc2N2CCCC2)cc1 | -6 | -3 | 1 | 0.5 | -4 | 94* | -5 | -2 | 0.3 | -5.1
CCOC(=O)C1C(=O)OC(C)(C)C1C(C)C(=O)c1ccc(OC)cc1 (stereo unspecified) | -7 | . | . | . | -13 | -8 | 4 | -13 | -0.8 | -3.7
O=[N+]([O-])/C(=C\Nc1ccccc1)S(=O)(=O)c1ccccc1 | 3 | . | . | . | 42 | -5 | -6 | -3 | -0.9 | -3.2
CCOc1ccc(N(CC(=O)N/N=C/c2cc([N+](=O)[O-])ccc2Cl)S(C)(=O)=O)cc1 | 3 | . | . | . | 4 | -1 | 10 | 0 | -0.9 | 2.5
O=C(Cc1c(F)cccc1Cl)Nc1ccc(S(=O)(=O)NCC2CCCO2)cc1 (stereo unspecified) | . | -15 | -7 | -3.3 | 2 | -1 | -2 | -3 | 0.0 | 2.4
COc1ccccc1-n1c(SCC(=O)Nc2ccc3c(c2)OCO3)nc2c(c1=O)SCC2 | 3 | . | . | . | 9 | -27 | -6 | 21 | 1.2 | 4.7
Cc1ccn2c(C(=O)NNC(=O)Nc3ccc(Cl)cc3)c(C)nc2c1 | 7 | 1 | 4 | 2.2 | . | ? | -4 | -5 | -0.9 | 2.8
COc1cccc(/C=C/c2nc(S(=O)(=O)c3ccccc3)c(N(C)C)o2)c1 | -1 | 0 | 18 | -1.7 | 34 | 15 | -3 | 2 | -0.8 | 5.0
CCN(CC)S(=O)(=O)c1cccc(-c2nnc(SCCCC(=O)c3ccccc3)o2)c1 | 10 | . | . | . | 66* | -1 | 3 | 4 | 0.7 | -4.6
CC(/C=N/NC(=O)c1cc(-c2ccc3ccccc3c2)n[nH]1)=C\c1ccco1 | 10 | -18* | -4.3* | 6.4* | -27 | -2 | 1 | 3 | 0.6 | 4.5
COc1ccc(OC)c(NC(=O)c2cccc(C)c2[N+](=O)[O-])c1 | -1 | 4 | -1 | 0.5 | -2 | -20 | -4 | 7 | 0.5 | -1.3
COc1cccc(Nc2ccc(C(=O)O)cc2[N+](=O)[O-])c1 | 3 | . | . | . | -4 | -2 | 0 | 12 | -0.9 | -5.3
CCOC(=O)N1CCN(S(=O)(=O)CCNC(=O)c2ccccc2)CC1 | -3 | 3 | 5 | -1.7 | -17 | -4 | -1 | 13 | -0.2 | -0.4
COc1ccc(CNc2nc(Cl)c(C#N)s2)cc1 | 0 | 3 | -14 | 3.8 | -9 | -4 | -1 | 23 | -0.9 | -1.6
CC(CNC(=O)c1ccccc1[N+](=O)[O-])NC(=O)c1ccccc1[N+](=O)[O-] (stereo unspecified) | -2 | 9 | 7 | -1.8 | -20 | -10 | -3 | 0 | 0.3 | 0.0
O=C(Nc1ccc([N+](=O)[O-])cn1)C1CC2CCC1C2 (stereo unspecified) | -8 | . | . | . | -7 | . | -13 | 2 | 1.4 | .
O=C1c2ccccc2C(=O)N1CCCCSc1nnc(-c2ccc(OC(F)F)cc2)o1 | . | . | . | . | -8 | -6 | 1 | 2 | -0.6 | -1.9
COc1cccc(CSc2nnc(-c3ccncc3)n2C)c1 | -4 | 8 | -7 | 2.0 | -21 | -8 | 0 | -7 | 0.6 | 0.5
COc1ccc(N=Nc2nc3cc(Br)c(Br)cc3n2C)c(OC)c1 | 1 | . | . | . | . | 0 | 9 | . | -0.4 | 102*
O=[N+]([O-])c1ccc(-c2ccc(/C=N/c3c(-c4ccco4)nc4ccccn34)o2)cc1 | 1 | . | . | . | -13 | . | 1 | 1 | -6.7 | -4.7
Cc1ccc(NC(=O)CN2C(=O)NC3(CCCc4ccccc43)C2=O)cc1S(=O)(=O)N1CCOCC1 (stereo unspecified) | -6 | -11 | -8 | 15 | -9 | 5 | 10 | 1 | 0.6 | -3.6
CC1CCCC(NC(=O)COC(=O)Cc2ccc(Cl)cc2)C1C (stereo unspecified) | 0 | -11 | -10 | -0.1 | . | . | 3 | . | -0.1 | 0.1
O=C(NCC(c1ccco1)N1CCc2ccccc2C1)c1cccc(Br)c1 (stereo unspecified) | -2 | -23 | -26 | -3.5 | 2 | -3 | -1 | 0 | -0.1 | 0.9
CCNC(=S)N(CCN(C)C)Cc1cc2cc3c(cc2[nH]c1=O)OCO3 | . | 0 | 2 | -1.4 | -15 | -2 | 2 | -5 | -0.1 | -3.0
Cc1ccc(S(=O)(=O)NNC(=S)Nc2ccccc2)cc1 | -6 | . | . | . | -6 | 99* | 4 | -8 | 0.5 | -0.1
O=C1CS/C(=N/N=C/c2ccccc2)N1Cc1ccco1 | 3 | -3 | -5 | 6.5 | -2 | 25 | -6 | 0 | -0.8 | 0.2
Cn1c(=O)[nH]c(=O)c2c1nc(NCc1ccco1)n2Cc1ccccc1Cl | 3 | 11 | 6 | -0.3 | -1 | 4 | 5 | 1 | 0.7 | -2.6
COc1ccc(-n2c(C)cc(C(=O)COc3ccc(-n4cnnn4)cc3)c2C)cc1 | 9 | . | . | . | 5 | -6 | 9 | 0 | 0.0 | -0.3

An excerpt from above in order of molecular weight, high to low:
SMILES | Beta cell apopt | Ecoli rRNA inh | Ecoli rRNA inh OD600 | Ecoli rRNA inh RFP | T cruzi repl | ALR inh | B2AR ag | Calb FLC | Bfl-1 A1 inh | LANA-H2B inh
COc1ccc(N=Nc2nc3cc(Br)c(Br)cc3n2C)c(OC)c1 | 1 | . | . | . | . | 0 | 9 | . | -0.4 | 102*
O=[N+]([O-])c1ccc(-c2ccc(/C=N/c3c(-c4ccco4)nc4ccccn34)o2)cc1 | 1 | . | . | . | -13 | . | 1 | 1 | -6.7 | -4.7
Cn1c(=O)[nH]c(=O)c2c1nc(NCc1ccco1)n2Cc1ccccc1Cl | 3 | 11 | 6 | -0.3 | -1 | 4 | 5 | 1 | 0.7 | -2.6

The list continues:
SMILES | Beta cell apopt | Ecoli rRNA inh | Ecoli rRNA inh OD600 | Ecoli rRNA inh RFP | T cruzi repl | ALR inh | B2AR ag | Calb FLC | Bfl-1 A1 inh | LANA-H2B inh
COc1ccc(NC(=O)C2C3C=CC4(O3)C2C(=O)N(CCN2CCCCC2C)C4C(=O)NC2CCCC(C)C2C)cc1 (stereo unspecified) | -3 | -2 | 1 | -3.7 | 2 | -3 | 10 | -7 | 0.4 | 6.1
Nc1ccc2oc(-c3ccccc3Cl)nc2c1 | 0 | -17 | -7 | -2.9 | 10 | . | -2 | -5 | 0.0 | .
O=C(/C=C/c1ccc(Cl)cc1)NCCN1CCOCC1 | -2 | . | . | . | 1 | 12 | -4 | -13 | -0.3 | -3.4
Clc1ccccc1Cc1noc(CN2CCSCC2)n1 | -12 | 3 | 2 | 0.8 | 1 | -22 | 18 | -13 | -0.2 | -2.0
CO/N=C/NC(=O)NOCc1ncc(C(F)(F)F)cc1Cl | -3 | . | . | . | -17 | -1 | 3 | -2 | 0.2 | -12
Cc1c(Cl)cccc1NC(=O)CCN1CCN(CCO)CC1 | 0 | 6 | 8 | -1.2 | 1 | -5 | 2 | 0 | 0.9 | -1.5
Clc1ccc(CN(Cc2ccccc2)C(c2cccs2)c2nnnn2C2CCCC2)cc1 (stereo unspecified) | 8 | . | . | . | 50 | -13 | 7 | -4 | -1.4 | -3.2
O=C1CN(S(=O)(=O)c2ccc(F)cc2)c2ccccc2N1 | -3 | -17 | -8 | 1.6 | -12 | 3 | 1 | -1 | 1.5 | 2.9
CCC(C)C(NC(=O)c1ccccc1NC(=O)c1ccccc1)C(=O)N1CCOCC1 (stereo unspecified) | -4 | 23 | 7 | 3.1 | 2 | -10 | -3 | 16 | 1.5 | 2.9
N#CCOc1ccccc1/C=N/n1nnnc1N | -4 | 2 | 2 | -2.7 | -10 | 0 | -5 | -1 | 0.0 | -0.7
Cc1ccc(S(=O)(=O)N2CCN(c3ncnc4scc(-c5ccc(F)cc5)c34)CC2)cc1 | 23 | 9 | 6 | 0.9 | 49 | 22 | 7 | 2 | 0.7 | 3.6
CCOc1ccc(N2C(=O)CCC2=O)cc1 | -5 | . | . | . | -14 | -12 | -1 | -2 | 1.3 | 3.0
CCC1CCCCN1CCCNC(=O)c1cc2c(Cl)nc3ccccc3c2s1 (stereo unspecified) | 1 | -15 | -17 | 2.5 | 48 | -30 | -4 | -16 | -1.0 | -0.5
COc1ccc(/C=N/Nc2nc(N)cc(Cl)n2)cc1OC | -3 | 7 | 8 | 0.6 | -14 | -10 | 5 | ? | -1.0 | 1.1

Three entries from above, in CSV form:
molecule,Beta cell apopt,Ecoli rRNA inh,Ecoli rRNA inh OD600,Ecoli rRNA inh RFP,T cruzi repl,ALR inh,B2AR ag,Calb FLC,Bfl-1 A1 inh,LANA-H2B inh
CCC(C)C(NC(=O)c1ccccc1NC(=O)c1ccccc1)C(=O)N1CCOCC1 (stereo unspecified),-4,23,7,3.1,2,-10,-3,16,1.5,2.9
CO/N=C/NC(=O)NOCc1ncc(C(F)(F)F)cc1Cl,-3,.,.,.,-17,-1,3,-2,0.2,-12
N#CCOc1ccccc1/C=N/n1nnnc1N,-4,2,2,-2.7,-10,0,-5,-1,0.0,-0.7
